High-throughput results deposited in PubChem by several laboratories.
Insulin prom inh: inhibitors of insulin promoter-driven GFP, primary screen, imaging, TRM-6 cells (human fetal islet line), eGFP reporter, cell count; reporter expression induced with tamoxifen; inhibition, % at 2 µM; 130,000 compounds, 0.9% hits;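 active = inhibition above the mean plus 3 SD, with well images judged a real hit on visual review, cut at about 60% in these data, passing the limit was not always enough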
GALR2 ag: GALR2 receptor agonists, primary screen, cell-based; Galanin receptor type 2 (Homo sapiens), O43603; GALR2-expressing cells, agonist activation read-out; activation, %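 (tested at 5 µM)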; 140,000 compounds, 0.48% hits; AID 803, 2007;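 active = above mean plus 3 SD of all compounds, about 5% in these data, not always enough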;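 also: 0% = vehicle buffer wells and 100% = reference agonist at full effect; tested in CHO reporter cells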
Target sequence (O43603 whole entry, looked up): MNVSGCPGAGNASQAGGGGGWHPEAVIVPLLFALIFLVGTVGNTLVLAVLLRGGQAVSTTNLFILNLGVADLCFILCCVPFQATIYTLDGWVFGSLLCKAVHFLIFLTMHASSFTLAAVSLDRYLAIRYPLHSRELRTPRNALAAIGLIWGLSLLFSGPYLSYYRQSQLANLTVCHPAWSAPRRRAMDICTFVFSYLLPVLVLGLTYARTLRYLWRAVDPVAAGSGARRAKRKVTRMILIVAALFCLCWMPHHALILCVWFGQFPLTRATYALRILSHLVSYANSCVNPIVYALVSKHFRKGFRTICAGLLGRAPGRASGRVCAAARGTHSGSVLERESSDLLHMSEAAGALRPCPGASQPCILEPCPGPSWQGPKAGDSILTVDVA
RGS16-Gao HTS: modulators of RGS16 binding to Galphao, primary screen, biochemical, human proteins, multiplexed bead flow cytometry. Regulator of G-protein signaling 16 (Homo sapiens) + Guanine nucleotide-binding protein …. bead-based flow cytometry RGS16-Galphao binding, fluorescence; actives lie on both sides. binding response (% of control), % at 10 µM. 220,000 compounds, 0.38% hits. AID 1441, 2008;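 active = below 25% or above 175%, edge rows of some plates excepted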;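 also: Galphao activated by GDP with aluminum fluoride before binding; 100% = wells without compound and 0% = beads without RGS; some results beyond the cut were filed as inactive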
Target sequence (O15492 whole entry, looked up): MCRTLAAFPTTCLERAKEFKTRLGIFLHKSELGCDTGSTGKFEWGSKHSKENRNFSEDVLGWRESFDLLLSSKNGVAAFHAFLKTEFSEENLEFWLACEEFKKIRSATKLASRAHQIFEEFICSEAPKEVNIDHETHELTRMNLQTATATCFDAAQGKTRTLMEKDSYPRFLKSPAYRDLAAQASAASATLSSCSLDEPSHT
Target sequence (P09471 whole entry, looked up): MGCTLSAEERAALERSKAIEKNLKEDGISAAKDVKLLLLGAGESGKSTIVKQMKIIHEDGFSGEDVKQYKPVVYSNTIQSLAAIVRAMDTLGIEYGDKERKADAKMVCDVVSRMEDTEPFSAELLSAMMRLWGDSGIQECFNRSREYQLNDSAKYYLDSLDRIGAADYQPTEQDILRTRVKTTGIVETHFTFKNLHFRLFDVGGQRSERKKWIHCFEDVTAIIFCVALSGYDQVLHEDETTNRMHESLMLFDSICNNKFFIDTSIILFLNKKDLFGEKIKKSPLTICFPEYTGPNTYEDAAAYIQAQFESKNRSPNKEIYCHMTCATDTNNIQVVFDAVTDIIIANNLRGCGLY
PKD1 inh: inhibitors of human PKD1 kinase, biochemical, fluorescence polarization | Serine/threonine-protein kinase D1 (Homo sapiens), Q15139 | PKD1 kinase fluorescence polarization assay | inhibition, %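 (about 10 µM by stock and volumes)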 | 200,000 compounds, 0.056% hits;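 active = inhibition of 50% or more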;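 also: controls were vehicle for no effect and a reference inhibitor for full effect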
HSV replic up: enhancers of HSV replication in host cells, fold increase, host cell viability; HSV replication augmentation in cells; maximum fold increase; 220,000 compounds, 0.005% hits;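 active = peak rise of 1.5-fold or more in the series; tested in PC3 cells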;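 also: first round at 10 µM; read as green reporter fluorescence; hits show the peak of a series up to 25 µM; 1 = signal of infected wells without compound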
Insulin prom inh cell count: also measured in Insulin prom inh; calls as there; normalized cell count, %; measured here: cell count, toxicity; reference of the scale not given here;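 cells exposed to compound for 48 h; stained nuclei by imaging scaled within each plate; lower means fewer cells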
HSV replic up primary fold: further read-out of HSV replic up, marked with its call; fold increase; compound at 10 µM; measured here: primary screen fold increase 10 uM; tested in PC3 cells;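 GFP signal in the first replicate; 1 = infected wells without compound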
Starred values were filed as active, the others as inactive; i = inactive; x = no result given.

SMILES	Insulin prom inh	Insulin prom inh cell count	GALR2 ag	RGS16-Gao HTS	PKD1 inh	HSV replic up	HSV replic up primary fold
CCN(CC)C(=O)Oc1ccc(Br)c2ccccc12	-40.0	64.0	-1.7	49.4	-6.3	i	0.96
CC(C)(CN1CCN(Cc2ccccc2)CC1)NS(=O)(=O)c1ccc(Cl)cc1	x	x	x	101.8	x	i	0.88
Cc1ccc(-c2c(C)sc(NC(=O)C3C4CCC(O4)C3C(=O)O)c2C(=O)OC(C)C)cc1 (stereo not drawn)	11.5	123.5	-2.5	98.8	-2.0	i	0.99
Clc1ccc(-n2c(SC/C=C/c3ccccc3)nnc2-c2cccnc2)cc1	-13.9	87.7	-0.1	100.4	-6.8	i	1.01
c1ccc(-c2nc(CSc3nnnn3-c3ccccc3)cs2)cc1	x	x	-2.5	-75.1	-3.7	i	0.94
O=C1CCN(S(=O)(=O)c2ccccc2)N1	10.0	114.1	-0.9	90.8	-4.5	x	x
O=C(CCC(=O)N/N=C/c1ccco1)N/N=C/c1ccco1	x	x	x	99.0	x	i	1.16
Cc1ccc(C2CCN(C(=S)NC(C)(C)C)C2)cc1 (stereo not drawn)	x	x	x	100.0	3.0	i	0.96
Cc1cc(C(C)(C)C)oc1C(=O)N(CC(=O)NC1CCCC1)Cc1ccc(F)cc1	12.9	84.7	-2.1	100.3	-14.7	i	0.95
COc1ccc(CN=C(C#N)C2=C(O)c3ccccc3C2=O)cc1	x	x	x	103.1	x	i	0.95
COc1ccc(C(=O)N/N=C/c2ccc(SC)cc2)cc1	-50.0	125.7	-0.3	103.2	3.0	i	0.84
COc1ccc(Nc2nnc(SCC(=O)c3cc(C)n(CC4CCCO4)c3C)s2)cc1 (stereo not drawn)	12.7	117.0	-1.8	96.3	-4.8	x	x
Cc1nc2ccccc2c2oc(C(=O)NCCCN3CCCC3=O)cc12	x	x	-1.4	98.2	-12.8	i	0.97
C/C(=N\NS(=O)(=O)c1ccc(Cl)c([N+](=O)[O-])c1)c1ccc(C)o1	-5.4	72.2	-1.2	99.5	-5.1	i	0.87
CCN(CC)CCNc1ncnc2c1sc1nc(N3CCOCC3)c3c(c12)CCCC3	x	x	x	99.4	x	i	0.58
CCOCCCNC(=O)c1ccc(NC(C)=O)cc1	39.1	133.1	-3.2	100.7	-1.6	i	1
CCOc1ccc(C(=O)Nc2nnc(NC(=S)Nc3ccccc3)s2)cc1	x	x	x	101.6	-4.2	i	0.98
Cc1cc2ccccc2c(=O)n1CC(=O)Nc1ccc2c(c1)OCCO2	70.0	91.8	-2.7	101.2	1.1	i	0.74
N#CC1=C(N)Oc2c(ccc3ccccc23)C1c1cccs1 (stereo not drawn)	-7.1	196.1	-0.2	46.3	1.6	i	0.803
COc1ccc(-c2cc(C#N)nc(N3CCN(c4ccccc4)CC3)n2)cc1	50.0	90.9	-1.9	102.7	-3.6	i	1.02
C#Cc1ccc([C@H]2C=C(C(=O)N3CCOCC3)O[C@@H](OCC)[C@@H]2CCCO)cc1	x	x	x	99.8	7.4	i	0.85
Cc1ccc2nsnc2c1N(S(C)(=O)=O)S(C)(=O)=O	-15.4	63.8	-1.0	98.2	7.3	i	0.87
COCCN(Cc1cc2cc3c(cc2nc1Cl)OCO3)C(=O)c1cccc(C)c1	x	x	x	100.7	x	i	0.94
CC(C)(C)n1ncc2c(=O)n(CC(=O)Nc3ccc4c(c3)OCCO4)cnc21	-100.0	46.8	1.1	101.7	-3.5	i	0.9
CCCCCOc1ccc(Cn2ccnc2)cc1[N+](=O)[O-]	-20.0	145.6	0.0	99.8	7.9	i	0.89
O=C(Nc1cccc(C(F)(F)F)c1)C1CCCN(c2ncccn2)C1 (stereo not drawn)	x	x	0.2	102.5	-9.8	i	0.89
Cc1ccc(/C=C2\SC(=S)N(CCC(=O)NNS(=O)(=O)c3ccccc3)C2=O)cc1	x	x	x	96.3	x	i	1
CCC(C)NC(=O)c1cn(C)c(=O)c2cc(OC)c(OC)cc12 (stereo not drawn)	15.4	93.1	-0.8	101.5	-0.2	i	0.9
O=C(NN1C(=O)C2C(C1=O)C1C=CC2C12CC2)c1ccccc1Cl (stereo not drawn)	x	x	x	101.3	x	i	0.94
CC1(C)Cc2ccccc2-c2nnc(SCc3ccc(C#N)cc3)n21	-20.6	66.8	-1.8	111.0	0.3	i	0.84

Part of the list above, bar-delimited:
SMILES | Insulin prom inh | Insulin prom inh cell count | GALR2 ag | RGS16-Gao HTS | PKD1 inh | HSV replic up | HSV replic up primary fold
C#Cc1ccc([C@H]2C=C(C(=O)N3CCOCC3)O[C@@H](OCC)[C@@H]2CCCO)cc1 | x | x | x | 99.8 | 7.4 | i | 0.85
Cc1ccc2nsnc2c1N(S(C)(=O)=O)S(C)(=O)=O | -15.4 | 63.8 | -1.0 | 98.2 | 7.3 | i | 0.87
COCCN(Cc1cc2cc3c(cc2nc1Cl)OCO3)C(=O)c1cccc(C)c1 | x | x | x | 100.7 | x | i | 0.94
CC(C)(C)n1ncc2c(=O)n(CC(=O)Nc3ccc4c(c3)OCCO4)cnc21 | -100.0 | 46.8 | 1.1 | 101.7 | -3.5 | i | 0.9
CCCCCOc1ccc(Cn2ccnc2)cc1[N+](=O)[O-] | -20.0 | 145.6 | 0.0 | 99.8 | 7.9 | i | 0.89
O=C(Nc1cccc(C(F)(F)F)c1)C1CCCN(c2ncccn2)C1 (stereo not drawn) | x | x | 0.2 | 102.5 | -9.8 | i | 0.89

(listing goes on)
SMILES	Insulin prom inh	Insulin prom inh cell count	GALR2 ag	RGS16-Gao HTS	PKD1 inh	HSV replic up	HSV replic up primary fold
COC(=O)c1nn(-c2ccccc2)c(Cl)c1/C=N/OCc1ccc(C)cc1	33.3	108.4	-1.9	88.5	-17.7	i	1.11
COc1ccc(C(=O)CSc2nnc(CN3CCCCC3)n2-c2ccc(F)cc2)cc1OC	44.4	57.6	-0.6	152.1	-0.2	i	0.71
Cc1ccc(CN2C(=O)CCC2C(=O)NCc2cccnc2)cc1 (stereo not drawn)	-44.4	125.5	-1.9	99.4	-13.5	i	0.88
COc1cc(C(=O)OCCCN2CCOCC2)ccc1O	30.0	120.2	x	104.8	-8.4	i	0.88
CCN(CCCn1c(=S)[nH]c2ccc(N3CCOCC3)cc2c1=O)c1ccccc1	-5.6	59.3	x	101.8	4.3	i	1.15
CN(C(=O)C12CC3CC(CC(C3)C1)C2)C1CCS(=O)(=O)C1 (stereo not drawn)	-40.0	99.8	-2.5	96.5	-0.7	i	1
COc1ccc2cc(CN(CC3COCCO3)S(=O)(=O)c3ccccc3)c(=O)[nH]c2c1 (stereo not drawn)	x	x	0.7	98.2	-7.6	i	1
Cc1oc(-c2cccc(Br)c2)[n+]([O-])c1C	41.7	109.1	x	92.8	10.3	i	0.95
O=S(=O)(CCCc1ccccc1)c1ncn[nH]1	56.2	156.5	1.0	114.3	-3.8	i	0.77
CCC1=C/C(=C\c2ccc3c(c2)OCO3)C(=O)S1	45.5	132.2	0.2	96.2	-17.2	i	0.95
COc1ccc(N(C)S(=O)(=O)c2cccc(C(=O)OCC(=O)NCc3ccccc3OC)c2)cc1	x	x	x	90.7	x	i	0.92
CCOC(=O)N1CCN(CC(=O)Nc2cc(OC)c(OC)cc2C#N)CC1	x	x	x	106.5	-1.4	i	0.87
CC(C)(C)c1ccc(C(=O)N/N=C2\C3CN4CCN(C3)CC2(c2ccccc2)C4)cc1	9.7	125.5	-0.3	114.6	2.3	i	0.92
O=C(C1=C[C@H](C2CC2)C[C@H](OCCCCO)O1)N1CCN(Cc2ccccc2)CC1	x	x	x	102.8	-7.1	i	1.03
CCNc1c(NCC)c(=O)c1=O	x	x	x	98.4	x	i	1.04
COc1cccc(OCCSc2nc(N)cc(N)n2)c1	3.9	56.5	-1.9	124.5	-7.7	i	0.94
Cn1c(SCC(=O)Nc2nc(C(C)(C)C)cs2)nnc1C1CC1	-50.0	148.9	x	112.8	-7.4	i	1.01
Cc1nnc(Nc2ccccn2)c2ccccc12	18.8	124.2	-1.7	98.3	2.8	x	x
O=C(N/N=C\c1cccc(Br)c1)c1ccccc1-n1cccc1	x	x	-1.6	114.3	-0.4	i	0.977
CCc1c(C)sc(NC(=S)N2CCN(CC)CC2)c1C(=O)OC	-10.5	95.0	x	106.0	-1.6	i	0.97
O=C(NC1CCCCC1)n1c(=O)oc2cc(S(=O)(=O)N3CCCCC3)ccc21	16.7	101.2	-1.8	112.4	-8.5	i	1.02
O=C(Nc1nnc(SCc2ccccc2)s1)c1ccco1	x	x	-1.3	83.1	3.5	i	0.957
CCc1cc(CN2CCOCC2)c(NC(=O)c2ccccc2)s1	-20.0	92.5	x	106.4	-1.8	i	0.99
O=C(CC(NS(=O)(=O)c1ccc(Cl)cc1)c1ccco1)NC1CCCC1 (stereo not drawn)	x	x	-0.6	103.5	-12.4	i	0.97
CC(C)CNC(=O)CSc1nnc2ccccn12	36.4	87.1	x	104.7	3.5	i	0.94
O=S(=O)(NC1CC2CCC1C2)c1ccc2c(c1)OCCO2 (stereo not drawn)	-103.5	96.8	0.4	17.7	5.8	i	1.21
O=C(O)CC/C(=N/NC(=O)c1cn(-c2ccccc2)nc1-c1ccccc1)C(=O)O	42.9	111.7	-0.1	103.4	-1.8	i	0.69
CCOC(=O)CC1=NN(c2ccccc2)C(=O)/C1=C\c1ccc(OC)cc1OC	-22.9	110.5	-0.7	99.3	19.2	i	0.96
O=C(NCc1cccs1)c1cc(-c2ccc(O)cc2)on1	x	x	x	96.9	x	i	0.58
CS(=O)(=O)N1CCN(C(=O)Cc2ccccc2)CC1	x	x	-1.6	100.3	-0.8	i	1.04
CCCSc1nnc(Cn2c(=O)sc3ccccc32)n1C	x	x	-1.5	107.1	-13.0	i	1.48
O=C1C2CC=CCC2C(=O)N1n1cnnc1 (stereo not drawn)	46.1	104.1	x	102.2	-3.3	i	1.06
O=C(CNS(=O)(=O)c1ccc(Br)s1)N1CCCC1	58.6	176.8	-2.0	116.2	1.6	i	0.94
Nn1c(Cc2ccc(Br)cc2)n[nH]c1=S	x	x	x	93.7	-0.7	i	0.96
Cc1ccc(NC(=O)CCC(=O)OCCCC(F)(F)C(F)(F)F)cc1	19.4	87.1	-2.4	109.2	-0.6	i	0.96
C=CCn1c(CCNC(=O)c2ccccc2F)nnc1SCc1nc2ccccc2c(=O)[nH]1	39.5	113.3	0.4	99.2	-1.7	i	0.82
Cc1ccc2c(c1)sc1ncc(NC(=O)c3ccccc3)c(=O)n12	7.1	127.3	0.1	x	-0.6	x	x
Cc1cc(C)c(S(=O)(=O)Nc2ccc3c(c2)CCC3)c(C)c1	-15.4	95.5	-0.4	101.9	-12.9	i	0.9
CCC(CO)NCC(O)COCc1ccc2c(c1)OCO2 (stereo not drawn)	x	x	x	97.9	-3.5	i	1.04
N#Cc1cc2ccccc2nc1SCc1cccnc1	x	x	-0.8	100.3	1.9	i	1.04
COc1cc(/C=C2\S/C(=N/S(=O)(=O)c3ccccc3)NC2=O)c([N+](=O)[O-])cc1OC	6.5	65.6	-0.6	110.2	-6.9	i	0.97
O=C(O)c1cc(NC(=O)C2CCCO2)cc(NC(=O)C2CCCO2)c1 (stereo not drawn)	-79.0	33.1	-2.2	87.1	-2.2	i	0.84
CCOC(=O)Cc1csc(NC(=O)c2c(-c3ccccc3)noc2C)n1	0.0	121.1	-0.8	101.4	-0.3	i	0.64
Cc1ccc2c(c1)NC(=O)c1cccc([N+](=O)[O-])c1CO2	15.4	96.9	x	100.1	9.5	i	1.06
Cc1nnc(SCC(=O)NN2C(=O)NC3(CCCCC3)C2=O)s1	20.6	120.1	-1.7	99.0	-6.5	i	0.83
CCn1c(Cc2ccccc2)nnc1SCC(=O)N1CCCCC1	-83.8	89.8	-1.6	106.3	-6.2	i	0.97
C#CCSc1nnc(-c2ccc(OC)cc2)o1	-10.7	198.9	-0.2	94.0	-9.3	i	0.71
Cc1nc(C(=O)Nc2ccc(F)cc2)nn1-c1ccc([N+](=O)[O-])cc1	26.9	102.5	-3.0	102.8	-3.2	i	1.03
N#Cc1ccc(Oc2ccc(/C=N/O)cn2)cc1	-10.7	92.0	-0.9	111.0	0.5	i	0.73
Oc1ccccc1OCc1nc2ccccc2s1	x	x	0.0	289.3	-10.6	i	0.91

Random draw from the library, and some 1.3% of all compounds hit somewhere here.
